Screens: PubChem BioAssay, several laboratories
CSC inhib: cancer stem cell inhibition; AID 2717; actives 1.1% (n = 300,000); inhibition, % at 7.5 µM; cancer stem cell-like cells viability, luminescence;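 active = mean at 75% or more and at least half the replicates too; inconclusive = mean and replicates disagree; tested in HMLE shEcad cells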;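 also: 0% = median of negative and 100% = median of positive control wells; the first replicate is given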
MT1-MMP act inh: MT1-MMP (human) activation inhibition; P50281; HT1080 RFP-PRO-GFP cells, GFP/RFP ratio fluorescence, overnight; percent of plate control window, DMSO zero; GFP/RFP ratio change, % at 20 µM; actives 0.061% (n = 360,000); AID 651647;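 active = GFP/RFP ratio change of at least 30% with cell ATP level not reduced by more than half and red fluorescence within 50% of control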; also: strong numbers were not always called active
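system = RFP-PRO-GFP reporter HT1080 cells | dosing = 20 µM single dose, 1% DMSO | timing = overnight cell settling, then overnight compound exposure, 37 °C, 5% CO2 | read-out basis = GFP/RFP fluorescence ratio | controls = DMSO and RFP-L50D-GFP cell wells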
UUG fidelity: modulators of start codon recognition fidelity in yeast; S. cerevisiae UUG-firefly luciferase reporter, luminescence/redox ratio; activity score, % at 18.7 µM; actives 0.13% (n = 350,000);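 active = replicate mean at a twofold rise or more, about +100% in these data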;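 also: firefly luciferase made from a UUG start codon reports start codon fidelity; reporter light over untreated wells divided by growth signal over untreated wells; some hits fall short of that in this replicate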
Rce1 inhib: yeast Ras-converting enzyme inhibition. Q03530. yeast membranes, quenched prenylated peptide cleavage fluorescence. calls only. actives 0.27% (n = 290,000). AID 2563;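 active = fall in fluorescence gain of 50% or more versus controls, with final raw signal at or below 3038400; inconclusive = same 50% fall but final raw signal above 3038400; inactive = fall in fluorescence gain under 50%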;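 also: plate controls were neutral control wells for no effect and wells lacking membranes for full effect; tested at 10 µM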
Target sequence (Q03530 whole entry, looked up): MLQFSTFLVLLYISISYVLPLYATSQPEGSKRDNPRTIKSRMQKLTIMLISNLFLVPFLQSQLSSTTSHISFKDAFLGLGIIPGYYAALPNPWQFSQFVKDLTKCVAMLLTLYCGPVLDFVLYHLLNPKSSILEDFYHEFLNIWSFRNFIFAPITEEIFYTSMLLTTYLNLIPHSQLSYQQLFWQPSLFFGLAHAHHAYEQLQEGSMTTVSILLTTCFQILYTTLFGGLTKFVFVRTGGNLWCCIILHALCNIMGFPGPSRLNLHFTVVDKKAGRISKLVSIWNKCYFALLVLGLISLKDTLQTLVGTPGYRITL
eIF4H FP inh: inhibitors of RNA binding by human eIF4H; eIF4H fluorescence polarization binding assay; actives 0.94% (n = 290,000); Q15056; inhibition, % at 35 µM;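 active = 50% or more with normal probe brightness, or confirmed in later tests; inconclusive = above 50% with abnormal brightness, or retests that disagree; inactive = below 50% or failed in later tests; about a fifth of its hits are not listed in these tables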;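 also: calls also rest on retests at 20 µM and on dose response follow-up; 0% = protein and probe with vehicle and 100% = probe without protein; strong numbers were not always called active; many hits fall short of the cut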
HIV Env fusion: inhibitors of HIV Env-mediated cell fusion | actives 1.1% (n = 360,000) | HeLa-JRFL Env/CEM21 cell fusion, luciferase | inhibition, % at 12.3 µM;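 active = mean replicate inhibition score of at least 50 and every replicate individually at or above 50; inconclusive = only one of the two criteria met; inactive = mean below 50 and not all replicates reaching 50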;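 also: 0% = plate neutral controls and 100% = maraviroc near 300 nM; one replicate is shown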
PABP polyA inh: blocks human PABP binding to poly(A) RNA | P11940 | fluorescence polarization | inhibition, % at 35 µM | actives 1% (n = 290,000);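 active = 50% or more with normal probe brightness, or confirmed in later tests; inconclusive = above 50% with abnormal brightness, or retests that disagree; inactive = below 50% or failed in later tests; about a fifth of its hits are not listed in these tables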;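 also: calls also rest on retests at 20 µM and on dose response follow-up; controls were probe without protein and protein plus probe with vehicle; some compounds called inactive have numbers as strong as hits; many hits fall short of the cut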
Target sequence (P11940 whole entry, looked up): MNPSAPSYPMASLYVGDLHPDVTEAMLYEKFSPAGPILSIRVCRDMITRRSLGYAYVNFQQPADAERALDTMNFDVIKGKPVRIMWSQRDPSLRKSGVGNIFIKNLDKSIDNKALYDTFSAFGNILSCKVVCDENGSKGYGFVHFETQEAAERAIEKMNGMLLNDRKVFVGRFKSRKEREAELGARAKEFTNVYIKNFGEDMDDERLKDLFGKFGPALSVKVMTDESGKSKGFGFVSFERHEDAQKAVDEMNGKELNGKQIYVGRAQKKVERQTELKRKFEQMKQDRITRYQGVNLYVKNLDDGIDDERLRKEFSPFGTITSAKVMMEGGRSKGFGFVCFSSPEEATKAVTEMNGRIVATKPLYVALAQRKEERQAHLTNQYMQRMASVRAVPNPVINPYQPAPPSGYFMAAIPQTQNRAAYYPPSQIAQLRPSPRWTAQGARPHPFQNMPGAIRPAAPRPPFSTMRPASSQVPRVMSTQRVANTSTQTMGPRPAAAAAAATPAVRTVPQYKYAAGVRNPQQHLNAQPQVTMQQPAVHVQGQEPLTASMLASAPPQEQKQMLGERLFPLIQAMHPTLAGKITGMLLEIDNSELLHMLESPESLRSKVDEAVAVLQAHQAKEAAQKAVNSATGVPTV
eIF4H FP inh retest: second read-out of eIF4H FP inh, no call of its own (marks repeat the call); inhibition, %; compound at 20 µM; confirmation average;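 mean of two retest wells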
PABP polyA inh retest: further read-out of PABP polyA inh, marked with its call; inhibition, %; compound at 20 µM; confirmation repeats;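 mean of two retest wells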
MT1-MMP act inh RFP: recorded beside MT1-MMP act inh, whose call it bears; RFP signal change, %; measured here: RFP expression control read;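 0 = vehicle wells; hits needed this value within 50% of zero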
The depositor's hits bear a star; i = inactive; ? = inconclusive; . = no result given. Only part of the results is shown. The share of hits here may be higher or lower than overall.

SMILES	CSC inhib	MT1-MMP act inh	MT1-MMP act inh RFP	UUG fidelity	Rce1 inhib	eIF4H FP inh	HIV Env fusion	PABP polyA inh	others
Cn1c(=O)[nH]c(=O)c2c1nc(N/N=C/c1ccncc1)n2Cc1ccc(Cl)cc1	-8	12	5	-21	.	26	-11	0
CCOC(=O)C1CCCN(C(=O)CCNS(=O)(=O)c2ccc(Br)cc2)C1 (stereo not drawn)	-13	-1	-2	-2	.	.	.	.
O=C(CSc1ccc(Cl)cc1)NNC(=O)c1ccco1	-4	-1	0	-11	i	0	4	4
Cc1ccc(Sc2c(CO)c(-c3ccccc3)nn2C)cc1	-4	0	-15	.	i	-4	-414	4
CCCSC1=C(C#N)C(c2ccccc2OCC)CC(=O)N1 (stereo not drawn)	-1	2	2	-5	i	3	-33	-10
Cc1ccc(N(CCC#N)C(=O)COC(=O)c2cc(C)no2)cc1	-10	2	1	.	i	.	-3	.
Cc1ccc(C(=O)OCC(=O)NC2CCCc3ccccc32)o1 (stereo not drawn)	0	9	1	-4	.	.	.	.
O=C(NCCc1ccccc1)c1ccc(Cl)c(S(=O)(=O)N2CCOCC2)c1	.	10	-4	12	i	-2	29	2
COc1ccccc1NC(=O)Cn1c(=O)c(N(C)C)c(N)n(C)c1=O	-7	-1	0	.	i	0	4	1
CC(=O)c1cccc(N(C(=O)CNC(=O)c2ccco2)C(C(=O)NC2CCCC2)c2ccco2)c1 (stereo not drawn)	0	-1	2	-10	i	-10	-9	-3
Cc1ccnc(NC(=O)C(C)N2C(=O)c3ccccc3S2(=O)=O)c1 (stereo not drawn)	-6	-3	1	2	i	.	-2	.
Cc1ccc(-n2c(=O)c3c4c(sc3n3c(=S)[nH]nc23)CCC4)cc1	23	-3	0	-9	i	0	27	6
O=C(CSc1nnc(Cc2ccccc2)o1)c1ccc2c(c1)OCO2	1	0	-3	.	i	.	0	.
COc1ccc(N(C(=O)C(C)C)S(=O)(=O)c2cccs2)cc1	.	4	0	-11	i	2	-11	-7
Cc1nn(Cc2ccccc2)c(Cl)c1C(=O)OCC(=O)NC(=O)NC12CC3CC(CC(C3)C1)C2	22	-15	-18	-16	i	-7	9	6
CN(c1ccc(C(=O)NCC2CCCO2)cc1)S(=O)(=O)c1ccc(Cl)cc1 (stereo not drawn)	.	3	1	-4	.	.	-5	.
CCNc1c(NS(=O)(=O)c2ccc(OC)cc2)c(=O)oc2ccccc12	-15	1	1	-6	.	6	-8	8
COC(=O)C1=C(C)N(C)C(=O)NC1c1cccc2ccccc12 (stereo not drawn)	-6	7	1	-18	i	-1	13	-12
CCN(CC)C(=O)c1ccc(S(=O)(=O)N2CCC(c3nc4ccccc4s3)CC2)cc1	15	-5	-25	-1	i	-3	.	2
Cc1cc(NC(=O)C2CC(c3ccc(F)cc3)=NO2)no1 (stereo not drawn)	-11	2	5	-17	i	-11	-6	-4
O=S(=O)(Nc1cccc(Br)c1)c1cccc2nsnc12	-11	5	3	-16	i	-6	-7	10
CCN1CCN(CCCNC(=O)Cn2nc(C)n3nc(-c4ccccc4)cc3c2=O)CC1	11	2	6	22	i	-5	-4	7
O=C(Nc1ccc(Cl)cn1)c1ccc2nccnc2c1	0	-4	-1	-12	i	28	-92	22
COCCNC(=O)COc1ncnc2scc(-c3ccc(F)cc3)c12	7	1	1	.	i	-11	12	16
COc1cccc(Nc2nc(C(N)Cc3ccc(Cl)cc3)cs2)n1 (stereo not drawn)	.	-8	-4	-21	.	.	8	.

New compounds follow.
SMILES	CSC inhib	MT1-MMP act inh	MT1-MMP act inh RFP	UUG fidelity	Rce1 inhib	eIF4H FP inh	HIV Env fusion	PABP polyA inh	others
CC(=O)Nc1ccc(-c2ccnc3c2CC(C)(C(=O)NCC2CCOCC2)O3)cc1 (stereo not drawn)	.	-11	-2	1	.	.	5	.
CCOC(=O)C1=C(C)N(CCCCCC(=O)O)C(=O)NC1c1ccc([N+](=O)[O-])cc1 (stereo not drawn)	-5	5	5	-21	i	2	3	-5
COc1ccc(-n2c(Cc3ccccc3)nnc2SCc2ccc([N+](=O)[O-])cc2)cc1	17	-1	-2	.	.	-10	-5	-8
O=C1C(c2ccncc2)N(CCC2=CCCCC2)C(=O)CN1C1CCCCC1 (stereo not drawn)	-5	-5	0	-10	i	-3	-35	2
CC(NS(=O)(=O)c1ccc(Br)cc1)C(c1cccs1)N1CCOCC1 (stereo not drawn)	-8	6	1	1	i	-4	20	6
COc1cccc(/C=N/N2CCN(C)CC2)c1	.	-1	1	.	i	0	0	-3
O=C(COC(=O)CCc1ccccc1)Nc1ccc(F)cc1Cl	-4	2	4	-12	i	-3	2	3
CC(C)(C)NC(=O)C1CN(S(=O)(=O)c2ccccc2)CCN1S(=O)(=O)c1ccccc1 (stereo not drawn)	-3	0	5	3	i	-4	.	-1
Cc1noc(/C=C/N(C)C)c1S(=O)(=O)N1CCCC(C(=O)Nc2ccc3c(c2)OCO3)C1 (stereo not drawn)	-12	-7	1	-16	.	0	5	-9
CCc1nc2c(OCc3ccc(Cl)cc3)cccn2c1N(C)C(=O)c1ccncc1	.	-8	4	-16	.	.	21	.
O=c1c2cc(Br)ccc2[nH]c(=S)n1Cc1ccccc1	.	-5	-5	-24	i	-6	28	15
O=C(CCN1C(=O)/C(=C/c2ccccc2Cl)SC1=S)NC1CCCC1	3	3	-4	-6	i	-9	-140	0
N#CCCn1cc(C=O)c(-c2cccs2)n1	-13	-3	0	.	i	95	-6	-11	eIF4H FP inh retest=21;PABP polyA inh retest=24
COc1ccc(S(=O)(=O)Nc2ccccc2C(=O)NN2CCOCC2)cc1OC	2	-2	0	-4	.	.	-21	.
O=C(Nc1cccc(F)c1)C1CCCN(S(=O)(=O)c2ccccc2)C1 (stereo not drawn)	2	-1	-5	6	i	8	17	10
COC(=O)c1ccccc1NC(=O)CSc1nnc(-c2ccc(OC)cc2)n1C	-5	-4	2	-17	i	0	-3	0
Cc1cc2c3c(c1)C(C)CC(C)(C)N3C(=O)C2=O (stereo not drawn)	0	-1	0	.	i	6	1	-3
CCN(c1ccccc1)S(=O)(=O)c1ccc(Cl)c(C(=O)Nc2ccncc2)c1	.	1	-8	-18	.	.	3	.
COc1ccccc1C(O)(C(=O)NNc1ccccc1C)c1ccccc1OC	-5	-2	4	.	i	4	-73	2
CCc1ccc(OCC(=O)Nc2ccc(S(=O)(=O)N3CCOCC3)cc2)cc1	-10	6	-2	28	i	.	-20	.
O=C(O)C1C(c2ccccc2)C(C(=O)N2CCOCC2)C1c1ccccc1 (stereo not drawn)	8	1	2	-12	i	0	-37	3
CC1CC(C)CN(CCCNC(=O)C2CCCN(c3nnc(N4CCCC4=O)s3)C2)C1 (stereo not drawn)	-3	3	3	-13	i	-2	.	-5
Cc1oc(/N=C/c2cccc([N+](=O)[O-])c2)c(C#N)c1C	-12	0	5	-9	i	-2	3	-15
CC(=O)NCCc1c[nH]c2ccc(OCc3ccccc3)cc12	-5	6	-2	1	i	.	-15	.
COC(=O)[C@@H](NC(=O)c1ccc2c(c1)S(=O)(=O)c1ccccc1C2=O)C(C)C	.	-5	4	-18	i	-2	8	-1

(more compounds)
SMILES	CSC inhib	MT1-MMP act inh	MT1-MMP act inh RFP	UUG fidelity	Rce1 inhib	eIF4H FP inh	HIV Env fusion	PABP polyA inh	others
COc1ccc(C(=O)C[n+]2ccc3ccccc3c2C)cc1	-9	4	0	-28	i	91*	-6	51*
c1ccc(Cn2c3ccccc3c3nnc(SCCN4CCCCC4)nc32)cc1	71	-6	-7	0	i	-13	7	-5
Cc1ccc(/C(N)=N/OC(=O)c2ccc(Cl)cc2Cl)cc1	-6	0	3	-23	i	1	-150	4
Cc1nc(-c2ccc(NC(=O)c3ccccc3Br)cc2)cs1	-5	-3	-4	.	i	-9	-104	-2
COC(=O)c1ccc(CN2CCN(C(C)C)C(CCO)C2)cc1 (stereo not drawn)	4	1	0	.	i	3	3	-6
O=C(CCC(=O)N1CCc2ccccc2C1)NCCc1ccc(Cl)cc1	-12	-2	3	-6	i	8	-6	18
OCCSc1c(F)c(SCCO)c(SCCO)c(F)c1SCCO	.	0	6	-12	i	3	12	-6
O=C(c1ccc2snnc2c1)N1CCCCC1	-3	-2	4	6	i	-3	.	-6
CCCCN(CC)C(=O)CSc1nc2ccccc2c(=O)n1CC1COc2ccccc2O1 (stereo not drawn)	19	-12	-15	-4	i	-5	-13	4
O=C(CC1SC(N2CCOCC2)=NC1=O)Nc1ccccc1F (stereo not drawn)	-29	0	0	-9	.	.	.	.
CN(C)S(=O)(=O)c1cccc(NC(=O)NCCCl)c1	4	0	1	.	i	10	12	3
COc1ccccc1CN(Cc1nc2ccccc2c(=O)[nH]1)S(=O)(=O)c1ccc2ccccc2c1	37	-10	-13	.	i	0	98*	3
NC(=O)CSc1nnnn1CC(CC(=O)O)c1ccccc1 (stereo not drawn)	-24	4	4	12	i	1	-29	-9
O=C(NCc1cccnc1)c1ccc(COc2ccccc2Br)o1	-5	0	-10	-15	i	-1	.	2
COc1cccc(/C=C2\SC(=S)N(c3cccnc3)C2=O)c1OC	-9	1	3	.	i	0	11	24
CC(=O)c1cn(N(C)c2ncc(C(F)(F)F)cc2Cl)c(=O)[nH]c1=O	-4	1	1	.	i	-26	-8	-12
CC(=O)Nc1ccc(-c2nnn(CC(=O)Nc3ccc4c(c3)OCO4)n2)cc1Cl	-4	2	3	.	i	6	0	4
O=C(O)c1cccc(S(=O)(=O)N2Cc3ccccc3C2)c1	-8	-2	1	.	i	-5	.	-10
CCOC(=O)/C(=N\Nc1cccc(C(F)(F)F)c1)N1CCOCC1	83*	0	0	.	i	6	3	1
CC(C)C(NC(=O)c1ccco1)C(=O)NCC(c1ccco1)N(C)C (stereo not drawn)	-3	-2	6	-7	i	-4	-11	-7
O=C(COc1cccnc1[N+](=O)[O-])Nc1ccc2c(c1)CCC2	6	-1	-3	-9	i	-3	-10	-1
O=C(Nc1ccc(Cn2nnc3ccccc32)cc1)c1ccco1	-13	7	-12	-12	i	-2	47	0
COc1ccc(Cl)cc1NC(=O)CN(C)C(=O)c1cc(=O)c2ccccc2o1	-13	2	7	13	.	.	9	.
CCC(=O)Nc1ccc2c(c1)Cc1cc([N+](=O)[O-])ccc1-2	.	-49	-3	-18	.	.	-81	.
CN1CCCC(OC(=O)c2cccc(Cl)c2)C1 (stereo not drawn)	-8	0	2	.	i	-7	8	11
CN(C)Cc1ccccc1C1(O)c2ccccc2CSc2ccccc21 (stereo not drawn)	48	13	-2	.	i	-9	.	-1
Cc1ccc2c(c1)C1CN(C)CCC1N2C(=O)c1ccccc1NS(=O)(=O)c1ccc(F)cc1C (stereo not drawn)	.	-4	-1	11	i	-11	1	-4
Cc1c(NC(=O)C(C)OC(=O)c2c3c(nc4ccccc24)CCC(C)C3)c(=O)n(-c2ccccc2)n1C (stereo not drawn)	-11	-3	-5	-15	i	.	?	.

Grouped by structure: the entries above containing a CF3 group (two)
SMILES	CSC inhib	MT1-MMP act inh	MT1-MMP act inh RFP	UUG fidelity	Rce1 inhib	eIF4H FP inh	HIV Env fusion	PABP polyA inh	others
CC(=O)c1cn(N(C)c2ncc(C(F)(F)F)cc2Cl)c(=O)[nH]c1=O	-4	1	1	.	i	-26	-8	-12
CCOC(=O)/C(=N\Nc1cccc(C(F)(F)F)c1)N1CCOCC1	83*	0	0	.	i	6	3	1
